# ID4 SMM: binds human ID4 protein on microarray; actives 1.2% (n = 31,000); small molecule microarray, Flag-ID4 binding, fluorescence F/B; AID 624137; calls only;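 active = spot signal over background at p below 0.07 in all four prints; compounds were printed on slides so no solution concentration is given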;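 note: a binder raises fluorescence above local background on the spot; about 2 pmol printed per array spot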
# Target sequence (P47928 whole entry, looked up): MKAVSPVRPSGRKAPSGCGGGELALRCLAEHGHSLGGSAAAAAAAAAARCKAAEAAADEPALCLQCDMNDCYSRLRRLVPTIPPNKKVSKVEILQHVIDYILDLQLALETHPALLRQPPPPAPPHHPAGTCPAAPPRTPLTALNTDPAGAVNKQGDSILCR
# Calls only; i = inactive; + = active, no number.
SMILES,ID4 SMM
NCC[C@@H]1CC[C@H](NC(=O)c2ccccc2F)[C@H](CO)O1,i
CC(=O)N(C)C[C@H]1Oc2ncc(C#CCC3CCCC3)cc2C(=O)N([C@@H](C)CO)C[C@@H]1C,i
COCC#Cc1cnc2c(c1)C(=O)N([C@H](C)CO)C[C@H](C)[C@@H](CN(C)S(C)(=O)=O)O2,i
CN(C)C(=O)C[C@@H]1CC[C@@H](NC(=O)C2CCOCC2)[C@@H](CO)O1,i
O=C(N[C@H]1C=C[C@@H](CC(=O)N2CCc3ccccc3C2)O[C@H]1CO)C1CCC1,i
COC(=O)c1cc(OC)c(OC)cc1NC(=O)CSc1nc(C)cc(C(F)(F)F)c1C#N,i
C[C@@H]1CN([C@H](C)CO)S(=O)(=O)c2ccc(/C=C/c3ccccc3)cc2O[C@@H]1CN(C)C(=O)Nc1cc(F)ccc1F,i
C[C@H](CO)N1C[C@H](C)[C@@H](CN(C)C(=O)C2CC2)Oc2ncc(C#CCc3ccccc3)cc2C1=O,i
C[C@H](NC(=O)C[C@H]1CC[C@H](NC(=O)c2cccnc2)[C@@H](CO)O1)c1ccccc1,i
Nc1nc(SCC(=O)Nc2ccc(Br)cc2F)n[nH]1,i
COc1ccc2cc(C(=O)Nc3ccc(O)cc3)sc(=O)c2c1OC,i
Cc1ccc(OCC(=O)Nc2ccc(Cl)c(-c3nc4ccccc4s3)c2)cc1,i
COc1cc(S(=O)(=O)NCc2ccccn2)ccc1Cl,i
Cc1cc([N+](=O)[O-])nn1CC(=O)Nc1cccc(O)c1,i
Cc1c(NC(=O)CN(c2cccc(Br)c2)S(C)(=O)=O)cccc1[N+](=O)[O-],i
COc1cc([N+](=O)[O-])ccc1NC(=S)NCc1cccnc1,i
Cc1cc([N+](=O)[O-])ccc1NC(=O)CSc1nnc(-c2ccc(Br)cc2)o1,i
COc1cccc(-c2cc(C(F)(F)F)nc(-n3cccn3)n2)c1,i
Cc1cc(=O)oc2cc(OC(C)C(=O)Nc3sc4c(c3C#N)CCCC4)ccc12 (stereo not drawn),i
CCN(CC(=O)Nc1ccccc1SC)S(=O)(=O)c1ccc2ccccc2c1,i
COCC(=O)N(C)C[C@@H]1Oc2ncc(C3=CCCCC3)cc2C(=O)N([C@H](C)CO)C[C@@H]1C,i
C/C=C/c1cnc2c(c1)C(=O)N([C@@H](C)CO)C[C@H](C)[C@@H](CN(C)C(=O)C1CCCCC1)O2,i
C[C@@H]1CN([C@@H](C)CO)C(=O)c2cc(-c3ccccc3)cnc2O[C@H]1CN(C)Cc1ccccc1,i
COc1ccccc1S(=O)(=O)N[C@@H]1C=C[C@@H](CC(=O)N2CCOCC2)O[C@H]1CO,i

# The list goes on, starting with the last 2 of the part before.
SMILES,ID4 SMM
C[C@@H]1CN([C@@H](C)CO)C(=O)c2cc(-c3ccccc3)cnc2O[C@H]1CN(C)Cc1ccccc1,i
COc1ccccc1S(=O)(=O)N[C@@H]1C=C[C@@H](CC(=O)N2CCOCC2)O[C@H]1CO,i
COc1ccc(OC)c(NC(=O)c2ccc(Cl)c(S(=O)(=O)Nc3ccc(C)cc3)c2)c1,i
CC(C)NS(=O)(=O)c1ccc(OCC(N)=O)c(Cl)c1,i
CNC[C@@H]1Oc2cc(C#CCC3CCCC3)ccc2S(=O)(=O)N([C@@H](C)CO)C[C@@H]1C,i
O=C(CSc1nnc(-c2cccs2)n1-c1cccc(C(F)(F)F)c1)c1ccc(F)cc1,i
C[C@H](CO)N1C[C@H](C)[C@H](CN(C)Cc2cccc(F)c2)Oc2ncc(-c3cccc(F)c3)cc2C1=O,i
O=C(O)C(Oc1ccc2c(-c3ccccc3)cc(=O)oc2c1)c1ccccc1 (stereo not drawn),i
COC(=O)C[C@@H]1C[C@@H]2c3cc(N(C)C)ccc3O[C@@H]2[C@H](CO)O1,i
CCOc1ccc(-n2c(SCC(=O)Nc3ccc(Cl)cc3)nc3ccccc3c2=O)cc1,i
NCC[C@H]1CC[C@@H](NC(=O)C2CCCCC2)[C@@H](CO)O1,i
CC(C)C#Cc1ccc2c(c1)O[C@H](CN(C)CC1CCOCC1)[C@H](C)CN([C@H](C)CO)S2(=O)=O,i
Cn1c(SCC(=O)Nc2ccccc2F)nnc1-c1cc2ccccc2o1,i
C[C@H]1CN([C@@H](C)CO)C(=O)c2cc(-c3ccc(C(=O)N(C)C)cc3)cnc2O[C@H]1CN(C)C,i
COc1cccc(CNC(=O)C[C@H]2C=C[C@H](NC(C)=O)[C@H](CO)O2)c1,i
COc1ccc(NC(=O)CSC2CC(=O)N(c3ccc(F)cc3)C2=O)cc1 (stereo not drawn),i
O=C(NCc1ccco1)c1ccc2c(c1)C(=O)N(Cc1cccnc1)C2=O,i
CCn1c(SCC(=O)Nc2ccc(Cl)c(Cl)c2)nnc1-c1ccc(Br)cc1,i
FC(F)(F)c1cccc(-n2c(-c3ccncc3)n[nH]c2=S)c1,i
Cc1cc(Cl)c(S(=O)(=O)N2CCN(c3ccc(F)cc3)CC2)cc1OCC(N)=O,i
C[C@@H]1CN([C@@H](C)CO)C(=O)c2cc(C#Cc3ccncc3)cnc2O[C@H]1CN(C)CC1CCCC1,i
Cn1c(Cc2cccs2)nnc1SCC(=O)N1CCCc2ccccc21,i
COc1ccc(CN2C(=O)C(O)(CC(=O)c3ccco3)c3ccccc32)cc1OC (stereo not drawn),i
CC(C)(C)c1ccc(SCC(O)CSc2nc3c(cc2C#N)CCCC3)cc1 (stereo not drawn),i
O=C(CSc1nnc(-c2cccc(Br)c2)n1-c1ccccc1)Nc1ccc(Cl)cc1,i
C[C@@H]1CN([C@H](C)CO)C(=O)c2ccccc2-c2ccccc2CO[C@H]1CN(C)C(=O)[C@H]1CCCN1C,i

# Compounds listed so far containing a thiophene ring, fused or not:
SMILES,ID4 SMM
Cc1cc(=O)oc2cc(OC(C)C(=O)Nc3sc4c(c3C#N)CCCC4)ccc12 (stereo not drawn),i
O=C(CSc1nnc(-c2cccs2)n1-c1cccc(C(F)(F)F)c1)c1ccc(F)cc1,i
Cn1c(Cc2cccs2)nnc1SCC(=O)N1CCCc2ccccc21,i

# 7 entries picked at random from those above:
SMILES,ID4 SMM
Cc1cc(Cl)c(S(=O)(=O)N2CCN(c3ccc(F)cc3)CC2)cc1OCC(N)=O,i
Cn1c(Cc2cccs2)nnc1SCC(=O)N1CCCc2ccccc21,i
FC(F)(F)c1cccc(-n2c(-c3ccncc3)n[nH]c2=S)c1,i
C[C@@H]1CN([C@@H](C)CO)C(=O)c2cc(C#Cc3ccncc3)cnc2O[C@H]1CN(C)CC1CCCC1,i
CCn1c(SCC(=O)Nc2ccc(Cl)c(Cl)c2)nnc1-c1ccc(Br)cc1,i
COc1ccc(CN2C(=O)C(O)(CC(=O)c3ccco3)c3ccccc32)cc1OC (stereo not drawn),i
O=C(NCc1ccco1)c1ccc2c(c1)C(=O)N(Cc1cccnc1)C2=O,i

# Other entries.
SMILES,ID4 SMM
COc1ccc(NC(=O)Nc2ccc3c(c2)[C@@H]2C[C@H](CC(=O)NC4CCCCC4)O[C@H](CO)[C@@H]2O3)cc1,i
O=c1sc(N2CCN(C3CCCCC3)CC2)nc2ccsc12,i
C[C@@H]1CN([C@H](C)CO)C(=O)c2cc(C3=CCCCC3)cnc2O[C@H]1CN(C)Cc1ccc(C(=O)O)cc1,+
CNC[C@H]1Oc2ncc(C#CC3(O)CCCC3)cc2C(=O)N([C@H](C)CO)C[C@@H]1C,i
C[C@@H]1CN([C@@H](C)CO)C(=O)c2cc(C3=CCCC3)cnc2O[C@@H]1CN(C)C,i
O=C(Nc1ccccc1C(=O)OCc1cccc([N+](=O)[O-])c1)c1ccccc1,i
Cc1c(Br)c([N+](=O)[O-])nn1C(C)C(=O)N1CCCc2ccccc21 (stereo not drawn),i
O=C(N/N=C/c1ccc([N+](=O)[O-])o1)c1ccc(O)cc1,i
Cn1cnc(S(=O)(=O)N[C@H]2CC[C@H](CC(=O)N3CCN(c4ccccc4)CC3)O[C@H]2CO)c1,i
CCn1c(SCC(=O)Nc2cc(Cl)c(Cl)cc2Cl)nnc1-c1cc(Br)ccc1O,i
Cc1cc(C)cc(COc2ccc3c(C)c(CCC(=O)O)c(=O)oc3c2C)c1,i
CC(=O)c1ccc(NC(=O)CSc2nc(N)cc(=O)[nH]2)cc1,i
COc1cc(C)c(Cl)c(C)c1S(=O)(=O)NCc1cccnc1,i
Nc1cc(=O)nc(SCC(=O)N2c3ccccc3Sc3ccccc32)n1-c1ccccc1,i
O=C(Cc1ccccc1)N[C@@H]1C=C[C@H](CC(=O)N2CCCCC2)O[C@H]1CO,i
COc1cccc(NC(=O)CSc2nc3ccccc3c(=O)n2-c2cccc(C(F)(F)F)c2)c1,i
Cc1ccc(-n2c(SCC(=O)Nc3sc4c(c3C#N)CCCC4)nnc2-c2ccccc2)cc1,i
O=C(O)CCSc1nnc(-c2cccnc2)n1-c1ccccc1,i
C[C@H](CO)N1C[C@H](C)[C@@H](CN(C)C(=O)Nc2cc(F)ccc2F)Oc2cc(C#CC3CCCC3)ccc2S1(=O)=O,i
C[C@H](CO)N1C[C@H](C)[C@H](CN(C)CC2CC2)Oc2cc(-c3ccccc3)ccc2S1(=O)=O,i
CCn1c(SCC(=O)Nc2ccc(F)c(Cl)c2)nnc1-c1ccc(C(C)(C)C)cc1,i
CC(=O)N(C)C[C@@H]1Oc2ncc(-c3ccc(C)cc3)cc2C(=O)N([C@@H](C)CO)C[C@@H]1C,i
O=C(O)C1CC=CCC1C(=O)Nc1ccc(C(=O)N2CCCCC2)c(Cl)c1 (stereo not drawn),i
CC1(C)C(=O)[C@@H]2O[C@@H]2[C@@]2(C)C1CC(=O)[C@]1(C)C2CC[C@@]2(C)[C@H](c3ccoc3)OC(=O)[C@H]3O[C@]321 (stereo partly drawn),i
COC(=O)C[C@@H]1C[C@H]2c3cc(N)ccc3O[C@H]2[C@H](CO)O1,i
CCOc1ccc(NC(=O)CSc2nnc(N)s2)cc1,i
O=C1C(=O)N(CCCn2ccnc2)C(c2cccc(Br)c2)C1C(=O)c1ccco1 (stereo not drawn),i
O=C(CCn1nc(-c2ccc(Cl)cc2)c2ccccc2c1=O)Nc1cccc(C(F)(F)F)c1,i
CCc1cccc(OCC(=O)Nc2ccc(OC)cc2[N+](=O)[O-])c1,i
COc1ccc(C#Cc2cnc3c(c2)C(=O)N([C@H](C)CO)C[C@@H](C)[C@@H](CN(C)CC2CC2)O3)cc1,i
COc1ccccc1NC(=O)Cn1cnc2sc(-c3ccccc3)cc2c1=O,i
O=C(C[C@@H]1C=C[C@H](NC(=O)C2CC2)[C@H](CO)O1)NCc1ccncc1,i
C[C@H](CO)N1C[C@H](C)[C@H](CN(C)C(=O)Nc2ccc(F)cc2)Oc2c(cccc2N(C)C)C1=O,i
CC(C)(C)c1cc(NC(=O)CSc2n[nH]c(N)n2)cc(C(C)(C)C)c1,i
CC1CCN(S(=O)(=O)c2cn(CC(=O)N(C)Cc3ccccc3)c(=O)c3ccccc23)CC1,i
O=C(CN1CCCCC1)Nc1nonc1NC(=O)CN1CCCCC1,i
COC(=O)c1cc(NC(=O)CSc2nnc(C)s2)ccc1Cl,i
O=C1O[C@@H](c2ccccc2)[C@@H](c2ccccc2)N2[C@@H](c3ccc(O)cc3)[C@]3(C(=O)Nc4ccc(C#CCCO)cc43)[C@@H](C(=O)NC[C@H](O)c3ccccc3)[C@H]12,i
C[C@H]1CN([C@@H](C)CO)C(=O)c2cc(C#Cc3ccccc3)cnc2O[C@H]1CN(C)Cc1ccccn1,i
Cc1sc2c(c1C)c(=O)nc1scc(CC(=O)NCCO)n12,i
CCCC#Cc1cnc2c(c1)C(=O)N([C@@H](C)CO)C[C@H](C)[C@H](CN(C)C(=O)Cc1ccccc1)O2,i
COc1ccc(S(=O)(=O)N(C)c2ccc(C(=O)Nc3cccnc3)cc2)cc1,i
C[C@H]1CN([C@@H](C)CO)S(=O)(=O)c2ccc(-c3cncnc3)cc2O[C@@H]1CN(C)Cc1ccccc1,i
Cc1ccc(Nc2nc(N)nc(CSc3nccn3C)n2)cc1,i
COc1ccc(C(NC(=O)c2cccnc2)c2cc(Cl)c3cccnc3c2O)cc1OC (stereo not drawn),i
CCn1c(SCC(=O)Nc2ccc(Cl)cc2Cl)nnc1-c1cccc(C)c1,i
Cc1ccc(-c2cnc3c(c2)C(=O)N([C@@H](C)CO)C[C@@H](C)[C@H](CN(C)C(=O)c2ccc(F)cc2)O3)cc1,i
Cc1cc2nn(-c3cccc4ccccc34)nc2cc1NC(=S)NC(=O)COc1ccccc1,i

# Some of these compounds in order of molar mass, falling:
SMILES,ID4 SMM
COC(=O)c1cc(OC)c(OC)cc1NC(=O)CSc1nc(C)cc(C(F)(F)F)c1C#N,i
Cc1c(Br)c([N+](=O)[O-])nn1C(C)C(=O)N1CCCc2ccccc21 (stereo not drawn),i
CCc1cccc(OCC(=O)Nc2ccc(OC)cc2[N+](=O)[O-])c1,i

# Additional structures
SMILES,ID4 SMM
COc1cc(OC)c(C2=NOC(C(=O)Nc3sc4c(c3C#N)CCC4)C2)cc1Cl (stereo not drawn),i
O=C(C[C@H]1CC[C@H](NC(=O)C2CCC2)[C@@H](CO)O1)NC1CCCCC1,i
O=C(Nc1ncc(C(F)(F)F)cc1Cl)C1COc2ccccc2O1 (stereo not drawn),i
c1ccc(N=C2SC(=NC3CCCCC3)C3=C2CCCC3)cc1,i
CC(C)C[C@@H]1NC(=O)[C@H]2C[C@@H](C(=O)NCc3ccc(F)cc3)[C@@H](c3cccc(OCCO)c3)N2C1=O,i
COc1ccc(NC(=O)CSc2nc(N)cc(=O)[nH]2)cc1,i
COc1ccc(OC)c(CNCc2ccccc2OC)c1,i
C[C@H](CO)N1C[C@H](C)[C@@H](CN(C)Cc2ccc(F)cc2)Oc2ncc(-c3cccc(C#N)c3)cc2C1=O,i
COc1ccc([N+](=O)[O-])cc1NC(=O)CCN1CCN(CCO)CC1,i
O=C(CSc1nc2sc3c(c2c(=O)n1-c1ccccc1)CCC3)N1CCC(c2noc3ccc(F)cc23)CC1,i
COc1cccc(C(=O)NC2(C(F)(F)F)C(=O)N(CC3CCCO3)C3=C2C(=O)CC(C)(C)C3)c1 (stereo not drawn),i
CC(=O)N(C)C[C@@H]1Oc2ncc(C#Cc3cccc(F)c3)cc2C(=O)N([C@@H](C)CO)C[C@@H]1C,i
CC(C)NC(=O)N(C)C[C@@H]1Oc2ncc(-c3ccc(C(=O)N(C)C)cc3)cc2C(=O)N([C@@H](C)CO)C[C@H]1C,i

# Compound activity (PubChem BioAssay)

# These rows are one share of the data; the hit share may differ from the screen's.
